Screens: PubChem, several laboratories
Mtb betalactam – beta-lactam sensitization of Mtb H37Rv, H37Rv. M. tuberculosis H37Rv growth with meropenem, percent inhibition; hits of this screen are not shown here. inhibition, % at 25 µM. 330,000 compounds, 0.27% hits. AID 434955, 2010;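 active = about 74% or more and at least 40 points above the plate without the antibiotic, then above 30% in a dose series; inconclusive = first-round hits that could not be retested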;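 also: growth measured after seven days incubation then overnight dye step; 0% = bacteria only wells and 100% = bacteria with antibiotic; twin plates without the antibiotic show which effects depend on it; some results filed as inactive read as strong as hits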
Mtb growth – M. tuberculosis H37Rv growth inhibitors, H37Rv strain (AID 1626). inhibition, % at 10 µM, or IC50 in µM where a hit was titrated. M. tuberculosis H37Rv growth inhibition; higher % means a stronger effect. 220,000 compounds, 0.95% hits;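 active = confirmed in a dose series; inconclusive = inhibition above 80% but not taken into the dose series; inactive = below 80% or under 30% at every dose of the series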;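 also: bacteria incubated seven days before Alamar blue readout; 0% = bacteria only wells and 100% = bacteria with antibiotic wells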
Arbovirus anti – antivirals against arbovirus infection, primary screen, cell-based, full library, 10K replicate subset; arbovirus infection cell-based antiviral screen; inhibition, % at 10 µM; 200,000 compounds, 0.37% hits; AID 1251, 2008;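 active = inhibition from about 30%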;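 also: bluetongue infection of BSR cells; cell survival read as ATP light after 72 h; 0% = infected wells without compound and 100% = uninfected wells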
RecA intein inh – Mtb RecA intein splicing inhibitors, primary screen, biochemical, fluorescence, HTS. 290,000 compounds, 0.75% hits. inhibition, %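 (about 9 µM by stock and volumes)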. cell-free RecA intein splicing. AID 2221, 2009. Protein RecA (Mycobacterium tuberculosis (strain ATCC 25618 / H37Rv)), P9WHJ3; in the data active = inhibition above about 30%; inconclusive = no clear call, values can overlap the other calls;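 also: 0% = vehicle wells and 100% = reference inhibitor control wells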
Target sequence (P9WHJ3 whole entry, looked up): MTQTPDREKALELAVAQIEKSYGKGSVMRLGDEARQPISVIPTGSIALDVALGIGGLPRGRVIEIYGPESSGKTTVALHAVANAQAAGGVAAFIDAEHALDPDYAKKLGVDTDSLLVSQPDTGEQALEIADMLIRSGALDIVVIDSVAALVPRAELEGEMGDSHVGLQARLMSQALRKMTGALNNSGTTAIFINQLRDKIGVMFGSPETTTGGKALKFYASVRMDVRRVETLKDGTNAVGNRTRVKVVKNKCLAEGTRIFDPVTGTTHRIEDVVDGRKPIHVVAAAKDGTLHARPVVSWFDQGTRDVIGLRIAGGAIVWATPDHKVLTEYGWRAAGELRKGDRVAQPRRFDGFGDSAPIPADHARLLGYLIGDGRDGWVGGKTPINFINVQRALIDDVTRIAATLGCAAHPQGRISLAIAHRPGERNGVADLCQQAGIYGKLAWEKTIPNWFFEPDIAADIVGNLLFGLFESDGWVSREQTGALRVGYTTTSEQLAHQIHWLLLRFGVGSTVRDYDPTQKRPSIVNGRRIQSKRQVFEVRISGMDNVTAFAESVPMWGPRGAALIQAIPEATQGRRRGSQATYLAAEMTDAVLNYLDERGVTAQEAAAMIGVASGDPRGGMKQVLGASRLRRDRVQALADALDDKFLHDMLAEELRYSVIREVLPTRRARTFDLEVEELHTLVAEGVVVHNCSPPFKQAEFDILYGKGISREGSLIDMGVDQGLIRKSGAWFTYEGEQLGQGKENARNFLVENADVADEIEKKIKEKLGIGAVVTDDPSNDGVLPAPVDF
YopH PTP inh – YopH tyrosine phosphatase inhibitors, primary screen, biochemical, fluorescence Ex485/Em525; YopH tyrosine phosphatase [Yersinia enterocolitica]; inhibition, %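 (about 10 µM by stock and volumes)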; 140,000 compounds, 0.16% hits;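 active = inhibition of 50% or more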;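 also: controls were vehicle for no effect and minimum signal wells for full effect; inactives centre near -20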
The depositor's hits bear a star; ? = inconclusive; · = no result given. A portion of the library. The share of hits here may be higher or lower than overall.

structure	Mtb betalactam	Mtb growth	Arbovirus anti	RecA intein inh	YopH PTP inh
COc1ccc(CCC(=O)N2C[C@H]3C[C@@H](C2)c2cccc(=O)n2C3)cc1	0	·	·	-0.1	·
O=S1(=O)CCN(Cc2cccc(Cl)c2)CC1	0	-4%	0	-0.1	-11
CCc1ccccc1NC(=O)CSc1nnc([C@@H](NC(=O)OC(C)(C)C)C(C)CC)o1 (some centres undefined)	-5	-7%	1	3.4	-39
COc1ccc(CNC(=O)c2cccc(N(C)C)c2)cc1	6	15%	-3	-0.4	-21
O=C1CCCC2=C1C(c1ccccc1)NC(=S)N2 (centres undefined)	-2	4%	2	-4.5	·
Cc1csc(=O)n1CCC(=O)OCC(=O)Nc1cccc(C#N)c1	-6	·	·	-1.4	·
CN1CCN(c2nc3c(c(=O)[nH]c(=O)n3C)n2Cc2cccc(Br)c2)CC1	-2	·	·	1.2	·
Nc1nnc(-c2ccco2)s1	3	-5%	5	-5.5	-24
COc1ccc(CCCc2nc3ccccc3[nH]2)cc1	-6	5%	·	0.9	·
O=C(Nc1ccc(OC(F)F)cc1)c1cc[n+]([O-])cc1	-6	·	·	-0.9	·
CCOC(=O)c1csc(COc2ccc(OC)cc2)n1	-2	-5%	·	-1.0	·
CC1(C)CC(=O)C(=Cc2cn(-c3ccccc3)nc2-c2ccccc2)C(=O)C1	10	·	·	2.4	·
COc1cc(-c2nnc(SC/C=C/c3ccccc3)n2N)cc(OC)c1OC	3	-1%	10	6.7	-8
Cc1cc(C(=O)Nc2sc3c(c2C#N)CCC(C)C3)cs1 (centres undefined)	-9	-3%	1	3.6	-5
C/C(=N\NS(=O)(=O)c1cccc([N+](=O)[O-])c1)c1cccnc1	5	1%	4	-1.8	·
O=c1nc2n(c3ncccc13)CCC2	5	4%	8	-0.7	-2
COc1cccc(/C=N/NC(=O)CC(C)O)c1OC/C=C/c1ccccc1 (centres undefined)	-10	·	·	4.0	·
O=C(CNC(=O)c1ccco1)NCC(=O)OCc1ccccc1Cl	-1	·	·	-2.8	·
C=CCn1c(SCC(=O)N2CCc3ccccc3C2)nnc1-c1ccncc1	-2	2%	3	0.7	-30
C[N+](C)(C)CCCCCCC(=O)/C=N/O	2	-5%	2	-3.3	-17
COc1cccc(OCC(Cn2cnc3ccccc32)OC(C)=O)c1 (centres undefined)	-3	1%	3	0.7	·
Cc1cccc(/C=C2\Sc3ccc(C(=O)N4CCOCC4)cc3N(C)C2=O)c1	72	·	·	-0.4	·
c1ccc(CSc2n[nH]c(-c3ccco3)n2)cc1	3	-4%	2	3.8	-34
COc1ccc(CCn2c(-c3ccccc3)nc3c(c(=O)c4ccccc4n3C)c2=O)cc1	-4	8%	-10	-1.9	-1
COc1ccc2nc(NC(=O)Cn3cnc4c(=O)n(C)c(=O)n(C)c43)sc2c1	35	-12%	1	-0.9	-4
COc1ccc(CNC(=O)C2CCCN(S(=O)(=O)N3CC(C)CC(C)C3)C2)c(OC)c1 (centres undefined)	5	·	·	2.2	·
COC(=O)c1sccc1NC(=S)N1CCCCC1	-5	1%	8	-3.5	34
CCCCc1nc2sc3c(=O)n(N)cnc3c2c2c1CCCC2	7	-6%	-2	-31	-13
COC(=O)[C@@]12CCCCN1[C@H](c1ccc(-c3cccc(Cl)c3)c(OC)c1)[C@@H]1C(=O)N(C)C(=O)[C@@H]12	1	·	·	2.7	·
CC(C)(C)C(=O)N1CCN(c2nc3ccccc3o2)CC1	5	-6%	-2	-3.5	·
NC(=S)Nc1cc(Cl)cc(Cl)c1	-5	-8%	·	-0.5	·
Fc1ccccc1/C=N/Nc1nn[nH]n1	-2	5%	1	-5.3	-27
O=C(CCCc1c[nH]c2ccccc12)NCc1ccccc1F	10	·	·	2.1	·
O=C(Cn1cnc2ccccc2c1=O)NCCC(=O)N1CCN(c2ccccc2)CC1	-1	-6%	0	-0.1	6
CC(C)(C)NC(=O)C(c1cccs1)N(CC1CCCO1)C(=O)Cn1nnc(-c2cccs2)n1 (centres undefined)	2	-7%	-2	2.3	-8
Cc1ccc(NC(=O)CN2C(=O)NC(Cc3ccccc3)C2=O)cc1 (centres undefined)	-4	-6%	·	-13	-38
COC(=O)C(O)(c1c[nH]c2ccccc12)C(F)(F)F (centres undefined)	-17	-5%	10	-0.1	-2
Cc1ccccc1-n1c(O)c(/C=C2/C(c3ccccc3)=Nc3ccccc32)c(=O)[nH]c1=O	8	14%	-35	4.0	8
O=C(O)c1cccc(-c2ccc(/C=N/n3cnc4sc5c(c4c3=O)CCCC5)o2)c1	-3	-5%	·	1.0	·
CCOC(=O)N/N=C\c1ccc(-c2cc(Cl)ccc2Cl)o1	7	-18%	2	2.2	·
O=C1c2ccccc2NC2(CCCCC2)N1c1ccc(O)cc1	-2	-24%	-10	-3.4	2
O=c1cc(O)nc(-c2ccc(Cl)cc2)s1	1	3%	2	0.7	·
CN(CCc1ccccc1)Cc1ccccc1[N+](=O)[O-]	-15	·	-7	-0.2	-11
O=C(Cn1c2ccccc2c(=O)c2ccccc21)Nc1ccccc1F	6	-14%	7	-105	-28
CC(O)CNCc1ccc(Cl)cc1Cl (centres undefined)	-1	1%	6	-3.4	·
COc1ccc(CNC(=O)C(=O)NCCC2CCCCN2S(=O)(=O)c2ccc(C)cc2)cc1 (centres undefined)	4	·	·	0.4	·
COC(=O)c1c(N)sc(C(=O)NCCc2ccccc2)c1C	0	·	·	-0.4	·
CCc1ccc(OCC(=O)N2CCN=C2c2ccccc2)cc1	-1	3%	7	0.3	-13
N#Cc1ccc(C(=O)NCC2CCCCC2)cc1	0	·	·	-0.6	·
C[C@H](NC(=O)C1CC(=O)N(c2ccc3c(c2)OCCO3)C1)C(=O)NCc1ccco1 (some centres undefined)	-1	·	·	-2.1	·
CCOC(=O)n1c(=O)n(Cc2ccccc2C)c2ccccc21	0	-6%	2	4.8	·
COc1c(F)c(F)c(-c2csc(N)n2)c(F)c1F	46	·	·	1.9	-11
N#CC(C#N)=CC1=C2OC(c3ccccc3)=CC(c3ccccc3)=C2CCC1	18	3%	1	-0.8	-8
Cc1cc(=O)oc2c(C)c(OC(C)C(=O)N3CC[C@@]4(O)CCCC[C@H]4C3)ccc12 (some centres undefined)	-6	·	·	2.6	·
COc1ccc(S(=O)(=O)NNC(=O)c2cccs2)cc1	0	-1%	4	12	·
CC(=O)NNc1nc(-c2ccc(C)cc2)cs1	-3	?	-6	-7.5	·
CCOc1ccc(C(=O)NC(=S)Nc2ncccc2C)cc1[N+](=O)[O-]	2	48%	-10	-2.5	-26
COc1cc(NC(=O)CCCc2c[nH]c3ccccc23)cc(OC)c1	3	13%	-5	-1.2	-23
Cc1cccc(C)c1NC(=O)C1CSC2(C)CCC(=O)N12 (centres undefined)	2	·	·	-2.0	·
COc1ccc(OC)c(CNC(=O)CCN2C(=O)COc3ccccc32)c1	1	-1%	-1	-0.3	-15

More results follow:
structure	Mtb betalactam	Mtb growth	Arbovirus anti	RecA intein inh	YopH PTP inh
CN1CCN(C(=O)c2ccccc2NC(=O)CCN2C(=O)c3ccccc3C2=O)CC1	-13	-6%	-1	-2.8	-8
O=C(c1ccccc1)c1ccc(OC(=O)N2CCCC2)cc1	7	-6%	-1	-0.5	-4
COC(=O)c1cccc(NC(=O)c2cccnc2C(=O)O)c1C	-7	-9%	1	0.8	·
COc1ccccc1OCCCn1cc(C(=O)c2ccco2)c2ccccc21	5	-12%	14	15	-115
Cc1ccc(-n2c(C)cc(/C=C3/C(=N)N4C(c5ccccc5)=CSC4=NC3=O)c2C)cc1	15	-3%	0	-2.2	-12
O=C(NCc1ccccc1)C1=C[C@@H](c2coc3ccccc3c2=O)C[C@@H](OCCCCO)O1	-11	-2%	1	-0.4	·
CCc1nnc(NS(=O)(=O)c2ccccc2)s1	2	·	·	1.0	·
CC1(C)OC(=O)CC1C(=O)NCc1ccccc1 (centres undefined)	-1	-2%	8	-2.3	-6
CC(C)CC(=O)Nc1ccc(F)c(Cl)c1	?	-3%	-5	1.3	-43
COc1ccc2oc(=O)cc(CN(C)Cc3ccccc3)c2c1	1	·	·	-0.8	·
COc1cccc(N/C=C/C(=O)c2ccc(C)cc2)c1	0	·	·	-0.6	·
COC(=O)c1c(NC(=O)c2ccco2)sc(C(=O)N2CCCC2)c1C	-2	-2%	-4	-2.2	-7
Cc1onc(-c2ccccc2)c1C(=O)NCCc1c[nH]c2ccccc12	-13	-3%	-10	4.1	-44
O=C(NCc1n[nH]c(=S)n1-c1cccc(C(F)(F)F)c1)c1ccc(S(=O)(=O)N2CCCC2)cc1	-2	-2%	-4	-1.7	·
O=C(O)CCS(=O)(=O)c1cccc2cccnc12	-4	-8%	1	3.2	10
Cc1cc2ccccc2nc1SCC(=O)N1CCCC1	70	-1%	3	-1.1	-2
CC(C)C(OC(=O)c1cc2sccc2n1C)C(=O)NCC1CCCO1 (centres undefined)	1	6%	-2	1.0	-42
Cc1ccc(NCc2n[nH]c(=S)n2-c2cccc(Cl)c2)cc1	-4	0%	20	-0.3	·
CCCOc1ccc(NC(=O)CC2Nc3ccccc3NC2=O)cc1 (centres undefined)	-1	-1%	4	-2.1	·
Clc1ccc(/C=N/N2CCN(Cc3ccccc3Cl)CC2)cc1	20	4%	1	-1.9	·

Rewritten field by field: entries from further up.
> COc1cccc(N/C=C/C(=O)c2ccc(C)cc2)c1
  Mtb betalactam: 0
  Mtb growth: ·
  Arbovirus anti: ·
  RecA intein inh: -0.6
  YopH PTP inh: ·
> COC(=O)c1c(NC(=O)c2ccco2)sc(C(=O)N2CCCC2)c1C
  Mtb betalactam: -2
  Mtb growth: -2%
  Arbovirus anti: -4
  RecA intein inh: -2.2
  YopH PTP inh: -7
> Cc1onc(-c2ccccc2)c1C(=O)NCCc1c[nH]c2ccccc12
  Mtb betalactam: -13
  Mtb growth: -3%
  Arbovirus anti: -10
  RecA intein inh: 4.1
  YopH PTP inh: -44

Further structures:
structure	Mtb betalactam	Mtb growth	Arbovirus anti	RecA intein inh	YopH PTP inh
CCOc1ccc(S(=O)(=O)NCCC(=O)NCCc2ccc(OCC)c(OCC)c2)cc1	-8	·	·	-0.4	·
OCCCC1CCCCN1Cc1nc(Cc2ccccc2Cl)no1 (centres undefined)	3	-11%	-1	1.6	·
Cc1ccc(OC(=O)C23CC4CC(CC(C4)C2)C3)c(C)n1	10	2%	3	1.3	-29
COc1cc(OC)cc(C(=O)n2cnnc2N)c1	-5	-3%	0	14	-7
COc1ccc(CN=CC2=C(O)CC(C)(C)CC2=O)cc1	4	-7%	-2	-1.7	-45
COc1ccc(C2(C(=O)c3ccccc3)C(=O)c3ccccc3C2=O)cc1	-4	-3%	·	8.5	·
Cc1nnc2sc(SCc3ccc(Br)cc3)nn2c1=O	1	-2%	3	-0.4	·
CCCCNC(=S)NC1CCCC1	3	1%	-9	2.4	-20
Cc1nc(CSc2nnc(N)s2)cs1	-11	-4%	5	·	·
COc1ccc(N2CCN(C(=O)c3ccc(N(C)S(=O)(=O)c4ccc(OC)cc4)cc3)CC2)cc1	-5	-3%	4	0.4	·
NC(=O)CSc1nnc2ccc(-c3ccc(F)cc3)nn12	1	-4%	5	-2.6	·
Cc1ccc(CNC(=O)Cc2ccc(NC3=NC4CS(=O)(=O)CC4S3)cc2)cc1 (centres undefined)	4	·	·	1.7	·
CC1(C(=O)O)CCC(C(=O)Nc2cccc(F)c2)C1(C)C (centres undefined)	2	·	·	1.1	·
COc1ccc(Nc2ncnc3ccc(Br)cc23)c(OC)c1	8	·	·	-1.9	·
O=C(Nc1ccccc1F)c1ccc2snnc2c1	?	·	·	-0.5	·
CC(NC(=O)CCSCCC(=O)NC(C)c1ccccc1)c1ccccc1 (centres undefined)	9	12%	2	-2.1	-38
CCOC(=O)CNC(=S)N(CCCN1CCCCC1)Cc1cccs1	0	3%	7	-0.6	·
O=S(=O)(NCC(O)c1ccccc1)c1ccc(-c2ccccn2)s1 (centres undefined)	-3	4%	·	5.4	·
Cc1cc(C)nc(NC2=NCCN2C(=O)NC2CCCCC2)n1	1	0%	0	2.7	-27
O=C(Cn1cnc(Cl)c1Cl)c1ccc(F)cc1	-7	0%	1	0.3	·
O=C(Nc1ccccc1)c1sc(Cl)nc1-c1ccccc1	-7	13%	-5	-0.7	-25
